RE007 growth inh – less growth of the S. pombe RE007 Vpr strain; S. pombe RE007 Vpr strain, BacTiter-Glo ATP luminescence, 24 h; control for the full effect not named in the record; AID 651644; Potency, µM (top dose mostly 92.2 µM), for the others: at the top dose activity change, negative = less growth; 360,000 tested, 0.21% active; active = well fitted falling curve with a large enough effect; inconclusive = small, poorly fitted or top-dose-only effect; inactive = no such curve, though single readings can be large or run the other way;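 note: % is set by controls: 0 for no effect and ±100 for the full control effect; nearly all actives have a fitted effect of over 50% in size; the assay follows cell death caused by Vpr and the record does not say whether a fall means rescue or toxicity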
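Fission yeast strain RE007, carrying one chromosomally integrated HIV-1 vpr copy, was seeded at OD 0.01 in PMG+AL medium with 23 nL pinned compound. After 24 h at 30 °C and 99% humidity, viability was read by BacTiter-Glo luminescence.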
2A StopGo – FMDV 2A StopGo reporter, luciferase signal; AID 1159524; human cells with a luciferase reporter of 2A StopGo recoding; control for the full effect not named in the record; Potency, µM (titrated, usually from 57.9 µM), for inactives: at the highest dose signal change, negative = less light; 410,000 tested, 1.2% active; active = well fitted falling curve with a large enough effect; inconclusive = small, poorly fitted or top-dose-only effect; inactive = no such curve, though single readings can be large or run the other way; tested in HEK293T cells; note: % is set by controls: 0 for no effect and ±100 for the full control effect; nearly all actives have a fitted effect of over 45% in size; luciferase light after 4 h
NS1 inh – blocks influenza NS1 protein function; S. cerevisiae slowed by influenza A NS1, growth recovery by OD600; Potency, µM (doses to about 46.1 µM), without a hit: at the highest dose activity, positive = more growth; 270,000 tested, 0.4% active; AID 2326; active means well fitted rising curve with a large enough effect; inconclusive means small, poorly fitted or top-dose-only effect; inactive means no such curve, though single readings can be large or run the other way; note: nearly all actives have a fitted effect of over 50% in size
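OD600 was taken as the measure of yeast growth restored by compound in an NS1-expressing S. cerevisiae strain. Cells had been washed out of glucose medium and diluted 1:100 into galactose -URA medium, pH 6.0.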
LASV entry inh – Lassa virus entry inhibition | Lassa virus pseudotype entry inhibition, cell reporter; control for the full effect not named in the record | Potency, µM (top dose mostly 37.9 µM), inactives show top-dose activity change, negative = inhibition, actives largely listed as inhibitors | 300,000 tested, 1.2% active | AID 540256; active means well fitted inhibition curve with a large enough effect; inconclusive means small, poorly fitted or top-dose-only effect, or effect the other way; inactive means flat fitted curve, though single readings scatter; tested in HEK293 cells; note: % is set by controls: 0 for no effect and ±100 for the full control effect; nearly all actives have a fitted effect of over 50% in size; luciferase read-out
Cruzain Triton – inhibitors of Trypanosoma cruzi cruzain with detergent. P25779. Potency, µM, for the others: max response, negative = inhibition, actives largely listed as inhibitors. 200,000 tested, 0.43% active. purified cruzain, Z-FR-AMC fluorescence, 0.01% Triton;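 note: plate controls were neutral wells for no effect and buffer without enzyme for full effect; nearly all actives have a fitted effect of over 40% in size; top concentration of the series not given in the record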
Target sequence (P25779 123-467 limits assumed): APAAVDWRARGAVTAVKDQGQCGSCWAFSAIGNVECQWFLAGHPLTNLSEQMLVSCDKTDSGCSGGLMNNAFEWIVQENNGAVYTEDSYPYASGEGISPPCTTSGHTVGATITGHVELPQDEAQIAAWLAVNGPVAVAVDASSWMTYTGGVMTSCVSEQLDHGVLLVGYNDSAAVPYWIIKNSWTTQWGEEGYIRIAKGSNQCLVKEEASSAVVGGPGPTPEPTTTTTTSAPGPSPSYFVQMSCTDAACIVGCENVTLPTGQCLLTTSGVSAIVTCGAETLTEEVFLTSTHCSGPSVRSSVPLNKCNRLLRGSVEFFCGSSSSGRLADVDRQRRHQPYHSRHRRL
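Purified cruzain (1.5 nM final) was preincubated with compounds for 15 min at room temperature in 100 mM sodium acetate pH 5.5, 5 mM DTT, 0.01% Triton X-100. Reaction started with 2 uM Z-FR-AMC; AMC fluorescence change over 60 s gave activity.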
SARS PLP yeast – inhibitors of SARS-CoV papain-like protease in yeast; S. cerevisiae expressing SARS-CoV PLpro, growth rescue; control for the full effect not named in the record; Potency, µM (highest dose often 32.9 µM), without a hit: top-dose activity, positive = growth rescue; 330,000 tested, 0.19% active; active means well fitted rising curve with a large enough effect; inconclusive means small, poorly fitted or top-dose-only effect; inactive means no such curve, though single readings can be large or run the other way; note: 0% is about no effect; nearly all actives have a fitted effect of over 55% in size; growth read by luminescence after 48 h
Cruzain inh noDet – cruzain (T. cruzi) inhibition without detergent; purified cruzain, Z-FR-AMC fluorescence, no detergent; Potency, µM, without a hit: max response, negative = inhibition, most hits filed as inhibitors; 200,000 tested, 2.3% active;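 note: plate controls were enzyme without inhibitor for no effect and buffer without enzyme for full effect; nearly all actives have a fitted effect of over 40% in size; top concentration of the series not given in the record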
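Purified cruzain at 1.5 nM, pre-incubated 15 min with compound at room temperature in 100 mM sodium acetate pH 5.5, 5 mM DTT, 0.00005% Triton X-100. Reaction started with 2 uM Z-FR-AMC; AMC fluorescence increase over 60 s gives rate.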
Marburg entry inh – inhibitors of Marburg virus binding or cell entry; AID 540276; 300,000 tested, 1.8% active; Marburg virus pseudotyped entry inhibition, cell reporter; control for the full effect not named in the record; about a third of the inactives were read at about 46 µM; Potency, µM (series often up to 37.8 µM), inactives show at the top dose activity change, negative = inhibition, hits mostly inhibitors; active = well fitted inhibition curve with a large enough effect; inconclusive = small, poorly fitted or top-dose-only effect, or effect the other way; inactive = flat fitted curve, though single readings scatter; tested in HEK293 cells; about a fifth of its hits are not listed in these tables; note: % is set by controls: 0 for no effect and ±100 for the full control effect; luciferase read-out
Active calls of the source: *; ? = inconclusive; / = no result given; & = joins results of further samples; [ ] = another dose, or the depositor's remark. Unless noted, calls come from the whole dose curve; as a rule, active = well fitted curve in the direction sought with a large enough effect; inconclusive = small, poorly fitted or top-dose-only effect, or another doubt; inactive = no such curve, though single readings can be large; an effect the other way counts as inactive or inconclusive. Potency is the fitted concentration of half-maximal effect.

Structure	RE007 growth inh	2A StopGo	NS1 inh	LASV entry inh	Cruzain Triton	SARS PLP yeast	Cruzain inh noDet	Marburg entry inh
CCOP(=S)(OCC)SCC(=O)NC(C(=O)O)C(C)C (stereo not drawn)	29%	-13%	-2%	-5%	2.7%	2%	6%	8%
Cc1cc(C)c2c(c1)cc(C)c1nnc(SCC(=O)Nc3cc(C)on3)n12	6%	/	-7%	?	-3.0%	1%	-11%	?
COc1ccc(/C=C(\C#N)C(=O)NCCCn2ccnc2)cc1	-10%	-11%	-1%	9%[46.1 µM]	-0.7%	12%	-4%	14%[46.1 µM]
O=C(/C=C/c1cccc(F)c1)c1ccc(N2CCOCC2)cc1	?	-12%	0%	?	/	0%	/	?
COc1ccccc1CNC(=O)C(=O)NCCC1CCCCN1S(=O)(=O)c1cccs1 (stereo not drawn)	4%	?	/	?	/	-3%	/	?
CO/N=C1\CCn2c1c(C)c1ccccc12	-28%	-3%	-4%	8%[46.1 µM]	/	-2%	/	6%[46.1 µM]
Cc1ccc(S(=O)(=O)NCC(=O)OCC(=O)NCc2ccc(F)cc2)cc1	7%	6%	/	6%[46.1 µM]	/	0%	/	-17%[46.1 µM]
CN(Cc1ccon1)C(=O)CC1C(=O)NCCN1Cc1cccc(Oc2ccccc2)c1 (stereo not drawn)	0%	-22%	-4%	/	/	1%	/	/
COc1ccccc1C(=O)NCC(=O)NCCC(c1ccccc1)c1ccccc1	-5%	?	/	-16%	/	-1%	/	?
COc1ccc(CN2COc3ccc4c(-c5ccc(OC)cc5)cc(=O)oc4c3C2)cc1	/	-12%	/	8%[46.1 µM]	-29%	/	?	-22%[46.1 µM]
CN(C(=O)c1ccc(=O)n(Cc2ccc(Cl)cc2)c1)c1ccccc1	6%	-3%	-4%	-19%[46.1 µM]	/	-2%	/	6%[46.1 µM]
Cc1ccc(SCc2nc(-c3ccc(C(=O)NCC(C)c4ccccc4)cc3)oc2C)cc1 (stereo not drawn)	/	?	/	?	-6.9%	/	?	/
CC(C)c1ccc(OCC(=O)N2CCCN(C)CC2)cc1	-2%	14%	12%	18%[46.1 µM]	/	-5%	/	3%[46.1 µM]
COc1ccc(/C=C/C(=O)Nc2cc(S(=O)(=O)N3CCOCC3)ccc2N2CCCC2)cc1OC	8%	-2%	-34%	?	/	-4%	/	-18%[46.1 µM]
CCOCCCN(Cc1cc2cc(C)cc(C)c2[nH]c1=O)C(=O)N(CC)CC	-1%	7%	4%	?	3.6%	-3%	-2%	?
O=C(Cc1c(F)cccc1Cl)c1ccc(O)cc1O	-16%	0%	-224%	13%	-5.1%	-31%	-6%	-17%
CN=C(NC1CCCCC1)c1ccc([N+](=O)[O-])cc1	6%	-7%	?	/	/	-4%	/	/
CCOC(=O)c1c(-c2ccc(C)o2)csc1NC(=O)CN1CCCCC1	-16%	?	/	?	/	-3%	/	?
O=C(O)/C=C/C(=O)Nc1ccc(Oc2ccc(NC(=O)/C=C/C(=O)O)cc2)cc1	/	/	4%	5%	-3.9%	1%	9%	-1%
O=C(Nc1c(Cl)cc(Cl)cc1C(=O)NCCN1CCOCC1)c1cccc([N+](=O)[O-])c1	20%	18%	/	-6%	/	1%	/	14%[46.1 µM]
Cc1ccc(N(C)S(=O)(=O)c2cccc(C(=O)Nc3nnc(C4CC4)s3)c2)cc1	11%	-26%	/	?	/	0%	/	?
CCOC(=O)c1c(S(=O)(=O)N2CCCC(C(=O)NCc3ccc(Cl)cc3)C2)c(C)n(C)c1C (stereo not drawn)	/	15%	/	1%[46.1 µM]	-2.7%	/	?	/
Cc1ccc(Cn2c(C)c3cnn(CC(=O)NCc4ccccc4)c(=O)c3c2C)cc1	/	-26%	/	-20%[46.1 µM]	0.5%	/	-6%	-21%[46.1 µM]
COc1cccc(N2CCN(C(=O)c3oc4ccccc4c3NC(=O)Cc3ccc(OC)c(OC)c3)CC2)c1	-1%	22%	1%	?	/	-2%	/	?
COc1ccccc1/C=N/NC(=O)CC(=O)NCc1cccnc1	-8%	-16%	-3%	?	-3.0%	0%	1%	-39%
CC(=O)Nc1cccc(C(=O)NC2CCCc3c2cnn3-c2ccccc2F)c1 (stereo not drawn)	-13%	-8%	-1%	14%[46.1 µM]	/	4%	/	9%[46.1 µM]
c1cncc(CNC2CCCC2)c1	-9%	-3%	0%	2%	/	0%	/	9%
CCNC(=S)N/N=C/c1ccccc1[N+](=O)[O-]	-19%	-9%	4%	-9%	/	0%	/	-3%[46.1 µM]
CN(C)C(=O)Oc1ccc(Br)c2ccccc12	-1%	0%	/	0%[46.1 µM]	/	0%	/	-14%[46.1 µM]
O=C(O)c1cccc(-c2ccccc2)c1O	11%	30%[activator]	/	26%[46.1 µM]	/	/	/	7%[46.1 µM]
COc1ccc(N2CCN(C(=O)CS(=O)Cc3nc(-c4ccc(OC)c(OC)c4)oc3C)CC2)cc1 (stereo not drawn)	-15%	-9%	-1%	-20%[46.1 µM]	/	-3%	/	-14%[46.1 µM]
CCOc1ccc(NC(=O)c2ccc(NC(=S)NC3CCCCC3)cc2)cc1	-18%	-2%	4%	-22%[46.1 µM]	/	0%	/	?
O=C(NCc1ccco1)c1nnc(Cc2ccc(Cl)cc2)o1	0%	-17%	-2%	/	7.0%	0%	-13%	/
Cc1cc(N2CCC(C)CC2)nc2ccc(N3C(=O)CCC3=O)cc12	2%	0%	3%	?	-3.5%	-3%	-7%	19%
CCn1cc(C(=O)OCC(=O)Nc2cccc(Cl)c2Cl)c(=O)c2ccc(C)nc21	-12%	-13%	/	25%[46.1 µM]	/	-1%	/	29%[46.1 µM]
CCCCNC(=O)c1c(N)n(Cc2ccc3c(c2)OCO3)c2nc3ccccc3nc12	-1%	/	-3%	-11%	2.0%	-6%	-23%	?
COc1cccc(/C=N/NC(N)=S)c1OCc1cccc(Cl)c1	3%	?	19%	-28%	-24%	10%	5µM*	?
CCOC(=O)N1CCN(c2c(NCCN(C)Cc3ccccc3)c(=O)c2=O)CC1	-3%	-23%	10%	/	-0.3%	-7%	-9%	/
CC(C)(C)OC(=O)c1c(N)n(Cc2ccco2)c2nc3ccccc3nc12	2%	-22%	10%	5%	-17%	14%	2%	-20%&-20%
CC(=O)Nc1ccc(S(=O)(=O)NCC(=O)OCC(=O)NCc2ccc3c(c2)OCO3)cc1	-6%	15%	/	8%	/	-1%	/	-12%
COC(=O)c1cccc(NC(=O)CC2C(=O)NCCN2C(=O)c2ccc(F)cc2F)c1 (stereo not drawn)	10%	-7%	-5%	29%[46.1 µM]	/	0%	/	-10%[46.1 µM]
CN(C=O)CP(=O)(O)CN(C)C=O	28%	-15%	-2%	-2%	4.5%	-2%	7%	4%
CCOc1ccc(OCCC(=O)N2CCN(S(=O)(=O)c3ccc(F)cc3)CC2)cc1	8%	-8%	/	1%	/	-3%	/	10%
COc1cc(CNCCSc2nnnn2C)cc(Br)c1OCc1ccccc1F	-6%	-10%	-4%	?	3.6%	-2%	12%	-13%
Cc1c(C(=O)N2CCN(c3ccccc3)CC2)oc2c(F)cccc12	-27%	-4%	-9%	22%	/	-14%	/	?
CN(C(=O)c1ccccc1C(=O)OCC(=O)c1ccc(F)c(F)c1)C1CCCCC1	-10%	8%	/	?	/	-9%	/	-28%
O=C(NCCCc1ccccc1)N1CCOCC1	8%	3%	2%	3%[46.1 µM]	/	-1%	/	?
CCOc1ccc(C2NCCc3cc(OC)c(OC)cc32)cc1OC (stereo not drawn)	-8%	8%	3%	?	/	0%	/	?
Cc1cnc(C)c(N2CCN(Cc3nc(-c4ccccc4)no3)CC2)n1	-3%	-20%	-11%	/	/	0%	/	/
Cc1cc(NS(=O)(=O)c2ccc(Br)s2)no1	7%	-4%	6%	?	/	/	/	-1%
O=C(NCCc1ccccn1)C(F)(F)C(F)(F)C(F)(F)C(F)(F)C(F)(F)C(F)(F)C(F)(F)C(F)F	3%	-11%	18%	-30%	-7.0%	-4%	?	-4%
COc1ccccc1OCC(=O)Nc1ccccc1C(=O)NC1CC1	7%	-4%	/	-3%	/	8%	/	0%
CS(=O)(=O)N1Cc2ccccc2CC1C(=O)O (stereo not drawn)	4%	-5%	/	8%	/	1%	/	6%
Cn1c(=O)c2c(nc(CN3CCN(c4ccccc4)CC3)n2Cc2c(F)cccc2Cl)n(C)c1=O	10%	-19%	6%	?	-8.1%	3%	?	?
CC(C)CC(=O)Nc1nc(-c2ccc(S(=O)(=O)N3CCOCC3)cc2)cs1	-17%	22µM*	11%	?	/	-2%	/	-10%
CCn1c(O)c(N=NC2=NC(=O)CS2)c2cc(C)ccc21	6%	-10%	-5%	5%	-14%	6%	-18%	6%

Look-ups from the results shown:
Under RE007 growth inh, CN(C(=O)c1ccccc1C(=O)OCC(=O)c1ccc(F)c(F)c1)C1CCCCC1 is entered as -10%
Under NS1 inh, Cc1cnc(C)c(N2CCN(Cc3nc(-c4ccccc4)no3)CC2)n1 is entered as -11%

Source: PubChem BioAssay (National Center for Advancing Translational Sciences (NCATS))
